# Screens as filed in PubChem.
# Rce1 inh – yeast Rce1p protease inhibitors, primary screen, biochemical, fluorescence, cell-free homogeneous; CAAX prenyl protease 2 (Saccharomyces cerevisiae (strain ATCC 204508 / S288c)), Q03530; yeast membranes, quenched prenylated peptide cleavage fluorescence; calls only; 0.27% of 290,000 active; AID 2563, 2010;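 active means fall in fluorescence gain of 50% or more versus controls, with final raw signal at or below 3038400; inconclusive means same 50% fall but final raw signal above 3038400; inactive means fall in fluorescence gain under 50%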;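 further: plate controls were neutral control wells for no effect and wells lacking membranes for full effect; tested at 10 µM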
# Target sequence (Q03530 whole entry, looked up): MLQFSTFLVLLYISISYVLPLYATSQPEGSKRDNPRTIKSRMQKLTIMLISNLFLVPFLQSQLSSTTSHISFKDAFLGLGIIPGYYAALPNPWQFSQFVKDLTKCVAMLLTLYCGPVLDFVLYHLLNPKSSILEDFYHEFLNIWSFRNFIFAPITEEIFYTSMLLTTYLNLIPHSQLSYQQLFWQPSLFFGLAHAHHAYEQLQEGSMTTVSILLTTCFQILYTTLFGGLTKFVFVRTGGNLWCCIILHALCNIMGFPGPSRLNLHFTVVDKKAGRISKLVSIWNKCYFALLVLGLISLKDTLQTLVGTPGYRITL
# eIF4H inh – human eIF4H binding inhibitors, primary screen, translation initiation inhibitor project, biochemical, uHTS, fluorescence polarization; Eukaryotic translation initiation factor 4H (Homo sapiens), Q15056; eIF4H fluorescence polarization binding assay; inhibition, % at 35 µM; 0.94% of 290,000 active;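 active means 50% or more with normal probe brightness, or confirmed in later tests; inconclusive means above 50% with abnormal brightness, or retests that disagree; inactive means below 50% or failed in later tests; about a fifth of its hits are not listed in these tables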;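 further: calls also rest on retests at 20 µM and on dose response follow-up; 0% = protein and probe with vehicle and 100% = probe without protein; strong numbers were not always called active; many hits fall short of the cut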
# UUG fidelity – modulators of yeast start codon fidelity, primary screen, whole organism, S. cerevisiae, single point, plate reader; S. cerevisiae UUG-firefly luciferase reporter, luminescence/redox ratio; activity score, % at 18.7 µM; 0.13% of 350,000 active;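 active means replicate mean at a twofold rise or more, about +100% in these data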;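 further: firefly luciferase made from a UUG start codon reports start codon fidelity; reporter light over untreated wells divided by growth signal over untreated wells; some hits fall short of that in this replicate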
# Env fusion inh – inhibitors of HIV-1 Env-driven cell-cell fusion, primary screen, HeLa-JRFL effector, CEM21 target cells, luciferase; 1.1% of 360,000 active; inhibition, % at 12.3 µM;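 active means mean replicate inhibition score of at least 50 and every replicate individually at or above 50; inconclusive means only one of the two criteria met; inactive means mean below 50 and not all replicates reaching 50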;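 further: 0% = plate neutral controls and 100% = maraviroc near 300 nM; one replicate is shown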
# CSC inhib – cancer stem cell viability inhibitors, primary screen, luminescence; 1.1% of 300,000 active; cancer stem cell-like cells viability; inhibition, % at 7.5 µM; AID 2717, 2010;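 active means mean at 75% or more and at least half the replicates too; inconclusive means mean and replicates disagree; tested in HMLE shEcad cells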;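 further: 0% = median of negative and 100% = median of positive control wells; the first replicate is given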
# MT1-MMP act inh – blockers of MT1-MMP proenzyme processing, primary screen, HT1080 RFP-PRO-GFP cells, GFP/RFP fluorescence | 0.061% of 360,000 active | GFP/RFP ratio fluorescence, overnight; percent of plate control window, DMSO zero | Matrix metalloproteinase-14 (Homo sapiens), P50281 | AID 651647, 2012 | GFP/RFP ratio change, % at 20 µM;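 active means GFP/RFP ratio change of at least 30% with cell ATP level not reduced by more than half and red fluorescence within 50% of control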; further: strong numbers were not always called active
#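 Compound: 20 µM single dose, 1% DMSO / System: HT1080 RFP-PRO-GFP cells / Controls: DMSO and RFP-L50D-GFP cell wells / Read-out basis: GFP/RFP fluorescence ratio / Schedule: overnight compound exposure at 37 °C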
# PABP FP inh – PABP poly(A) RNA binding inhibitors, primary screen, biochemical, fluorescence polarization, uHTS; AID 2014, 2009; 1% of 290,000 active; Polyadenylate-binding protein 1 (Homo sapiens), P11940; inhibition, % at 35 µM;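 active means 50% or more with normal probe brightness, or confirmed in later tests; inconclusive means above 50% with abnormal brightness, or retests that disagree; inactive means below 50% or failed in later tests; about a fifth of its hits are not listed in these tables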;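 further: calls also rest on retests at 20 µM and on dose response follow-up; controls were probe without protein and protein plus probe with vehicle; some compounds called inactive have numbers as strong as hits; many hits fall short of the cut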
# eIF4H inh retest – recorded beside eIF4H inh, whose call it bears; inhibition, %; compound at 20 µM; confirmation average;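 mean of two retest wells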
# PABP FP inh retest – also measured in PABP FP inh; calls as there; inhibition, %; compound at 20 µM; confirmation repeats;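 mean of two retest wells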
# MT1-MMP act inh RFP – also measured in MT1-MMP act inh; calls as there; RFP signal change, %; measured here: RFP expression control read;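 0 = vehicle wells; hits needed this value within 50% of zero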
# Numbers without * were called inactive; i = inactive; ? = inconclusive; nt = not tested or not shown. Hits appear at their usual frequency. Share with any hit: about 3%.
SMILES,Rce1 inh,eIF4H inh,UUG fidelity,Env fusion inh,CSC inhib,MT1-MMP act inh,MT1-MMP act inh RFP,PABP FP inh,others
COCCC(=O)N1CCC(Oc2ccc(C(=O)NCc3nccn3C)cc2)CC1,i,-5.3,-14.0,nt,2.8,-0.9,2.5,1.2,
NC(=O)c1ccc(Oc2ccc(-c3nnco3)cc2)c([N+](=O)[O-])c1,i,6.0,-10.9,10.8,nt,-6.1,-5.4,8.1,
CC(OC(=O)C1CCN(S(=O)(=O)c2ccc(F)cc2)CC1)C(=O)NC1CCCCC1C (stereo not drawn),i,nt,nt,nt,-10.1,-2.9,-3.7,nt,
O=C(O)C1CC=CCC1C(=O)N1CCN(c2nc(-c3ccccc3)c3ccccc3n2)CC1 (stereo not drawn),i,11.6,nt,nt,4.9,-8.0,-5.5,-1.5,
O=[N+]([O-])c1ccc(N2CCN(Cc3ccc4c(c3)OCO4)CC2)nc1,i,-10.8,-0.6,8.7,22.0,2.3,-7.8,2.2,
Cc1ccc(F)c(S(=O)(=O)NC(=O)C2(C)CCN2C(=O)c2ccco2)c1 (stereo not drawn),nt,nt,-14.7,-1.5,nt,-1.4,1.4,nt,
COc1ccccc1NC(=O)C(=O)NNC(=O)COc1ccc2ccccc2c1,i,14.4,3.4,4.6,nt,2.3,6.3,-1.8,
COc1cc(C(=O)NN=Cc2ccc(N(C)C)cc2)cc(OC)c1OC,nt,nt,-9.3,-110.2,nt,21.4,5.6,nt,
CC(C)(C)C(=O)OCc1ccc(C2=CC(=O)CC(C)(C)C2=O)cc1,nt,nt,13.2,29.3,nt,4.9,-4.7,nt,
CCc1cccc(C)c1N(C(=O)Cn1c(CO)nc2ccccc21)C(C)COC (stereo not drawn),i,-5.4,593.5*,nt,-3.0,-8.9,-0.1,-9.0,
COC(=O)c1ccc(S(=O)(=O)N2C3CCC2CC(NC(=O)C2CC2)C3)cc1 (stereo not drawn),i,-10.9,-7.7,nt,2.2,5.0,1.3,-0.5,
Cc1cccc(NC(=S)NNC(=O)CC(C)O)c1C (stereo not drawn),i,-5.0,nt,nt,-6.8,2.2,1.6,-0.1,
Cc1cccc(/C=C2\Sc3ccc(C(=O)N4CCC(C)CC4)cc3N(C)C2=O)c1,i,-2.0,-12.8,14.3,29.6,-6.4,-16.8,-14.3,
O=C(Nc1cccnc1)c1ccc(F)c(S(=O)(=O)N2CCOCC2)c1,i,-3.0,-9.0,2.3,1.9,-0.6,-0.4,9.5,
COC(=O)c1scc(C)c1NC(=O)Nc1ccccc1,i,-7.7,-12.8,nt,-8.9,0.6,1.1,-2.9,
COc1cc(C(=O)N(C)C2CCCCC2)ccc1OC1CCN(C(C)=O)CC1,i,-0.9,-0.9,1.8,-4.2,0.6,-0.2,8.9,
O=C(Nc1ccc(S(=O)(=O)NC2=NCCCCC2)cc1)c1ccccc1Cl,i,3.9,-6.0,7.9,-3.6,4.2,-0.9,1.0,
CCOC(=O)C1C(c2ccccc2)C(C(=O)OCC)S(=O)(=O)C(CCN(CC)CC)S1(=O)=O (stereo not drawn),i,9.8,-5.6,-13.2,-13.7,7.9,1.6,-3.5,
CN(C)C(CNC(=O)CCc1nc2sc3c(c2c(=O)[nH]1)CCCC3)c1ccccc1 (stereo not drawn),i,nt,6.1,0.2,-1.4,-1.0,3.1,nt,
COc1ccc(C)cc1-n1c(N)c(C#N)c(C#N)c1-c1ccc(OC)c(OC)c1OC,i,-8.3,-2.8,nt,-7.2,8.4,-0.1,5.4,
O=C(c1cccc(C(F)(F)F)c1)N1CCN(CCc2ccccc2)CC1,i,-3.8,-11.6,-42.0,18.9,-2.1,1.8,-1.6,
O=C1[C@@H]2CSCN2C(=O)CN1Cc1ccccc1F,i,-9.3,nt,-2.5,-7.6,0.5,1.3,4.3,
O=C(O)CC(c1ccc(C(F)(F)F)cc1)N1Cc2ccccc2C1=O (stereo not drawn),i,-10.1,nt,27.7,-9.8,2.1,1.1,-1.7,
Cc1ccc(O)c(NC(=O)c2cc(-c3ccccc3)on2)c1,i,9.1,-20.4,-52.2,-7.5,1.4,0.0,2.6,

# Some of these compounds in order of count of non-hydrogen atoms, high to low.
SMILES,Rce1 inh,eIF4H inh,UUG fidelity,Env fusion inh,CSC inhib,MT1-MMP act inh,MT1-MMP act inh RFP,PABP FP inh,others
COC(=O)c1ccc(S(=O)(=O)N2C3CCC2CC(NC(=O)C2CC2)C3)cc1 (stereo not drawn),i,-10.9,-7.7,nt,2.2,5.0,1.3,-0.5,
O=C(O)CC(c1ccc(C(F)(F)F)cc1)N1Cc2ccccc2C1=O (stereo not drawn),i,-10.1,nt,27.7,-9.8,2.1,1.1,-1.7,
CC(C)(C)C(=O)OCc1ccc(C2=CC(=O)CC(C)(C)C2=O)cc1,nt,nt,13.2,29.3,nt,4.9,-4.7,nt,

# Additional entries follow:
SMILES,Rce1 inh,eIF4H inh,UUG fidelity,Env fusion inh,CSC inhib,MT1-MMP act inh,MT1-MMP act inh RFP,PABP FP inh,others
CCc1ccc(NC(=O)Cc2ccc(NC3=NC4CS(=O)(=O)CC4S3)cc2)cc1 (stereo not drawn),i,-7.2,-12.7,-0.4,-9.5,1.5,9.3,-4.1,
C#CCOc1nc(OCC#C)nc(OCC#C)n1,i,3.6,-18.6,nt,-7.4,-0.6,1.6,-1.0,
Cc1ccc(NS(=O)(=O)c2ccc3c(c2)n(C)c(=O)n3C)cc1,i,0.4,-2.4,nt,-8.1,6.9,-1.5,-2.5,
O=C(CSc1nnnn1C1CC1)N1CCN(c2ccc(O)cc2)CC1,nt,nt,-17.8,-7.8,nt,-2.2,3.9,nt,
CCc1c(C)nc2c(-c3ccccc3)c(-c3ccccc3)[nH]n2c1=O,i,-8.3,3.8,10.5,3.5,-7.7,-1.2,-2.3,
O=[N+]([O-])c1ccc(C=Nc2ccc(Cl)cc2Cl)s1,i,-5.9,-13.7,nt,8.2,0.1,1.2,-2.2,
COc1ccc(NC(=O)COC(=O)C23CC4CC(CC(NC(C)=O)(C4)C2)C3)cc1S(=O)(=O)N1CCOCC1,nt,nt,8.7,7.0,-12.5,2.6,2.0,nt,
COC(=O)c1cc(CNC(=O)CCCSc2ccccc2)ccc1OC,i,-2.0,-5.4,6.7,nt,-1.7,4.0,7.5,
COc1ccc(-c2nc3cc(NC(=O)Cc4ccc(OC)c(OC)c4)ccc3o2)cc1,i,-6.9,-18.9,63.4*,13.5,6.2,-21.0,-19.6,
CSc1ncccc1C(=O)NCCc1ccccc1F,i,-4.1,-3.8,3.0,4.4,1.1,2.5,1.2,
Cc1ccc(S(=O)(=O)N2CCC(=O)N(CCOCc3ccccc3)CC2)cc1,i,4.6,-22.5,20.6,-2.3,1.9,-5.9,5.5,
CCOc1ccc(NC(=S)Nc2ccc3nsnc3c2)cc1,i,-1.2,nt,-68.2,3.3,0.0,3.3,-2.6,
COC(=O)c1cc(=O)n2c(sc3ccccc32)c1C#N,nt,19.8,nt,12.3,-7.4,-0.1,5.1,-6.1,
O=C(CCN1C(=O)[C@@H]2Cc3ccccc3CN2C1=O)NCc1ccccc1,i,-0.5,4.7,2.8,-9.0,0.5,2.0,1.7,
CCOC(=O)CNC(=O)CNC(=O)Cn1ccc2ccccc2c1=O,i,7.4,nt,7.5,6.9,1.7,-3.1,9.2,
O=C(NCc1cccs1)C1CC(c2ccc(Cl)c(Cl)c2)=NO1 (stereo not drawn),i,0.7,nt,-18.1,60.8,0.5,2.3,-0.5,
CN1C(=O)NC(c2ccccc2Cl)C2=C1CC(C)(C)CC2=O (stereo not drawn),i,-1.1,-9.2,-2.9,2.5,-2.3,1.5,-4.3,
CO/N=C/C(C#N)=C/c1ccc(OC)c(OC)c1,i,-0.8,nt,-13.7,-7.0,2.3,1.8,-5.7,
CCCCCCc1cc2cc(C(=O)NC)c(=N)oc2cc1O,i,65.2,-19.0,-2.3,35.4,-18.5,-0.3,69.6,eIF4H inh retest=14.1;PABP FP inh retest=27.4
COC(=O)c1cc(Cl)cc2c(C)c(C3(O)CCCCC3)[nH]c12,i,-13.3,17.6,-9.9,-1.8,-2.6,0.6,9.1,
COC(=O)c1ccc(COC(=O)C23CC4CC(CC(O)(C4)C2)C3)o1,i,-2.0,-9.0,30.2,-3.7,-4.2,-5.6,-7.6,
COc1ccc(C(=O)Cc2ccc(OC)c(OC)c2)c(OC)c1,i,-10.1,-13.0,nt,11.4,1.0,-12.3,-0.7,
CCN(CC)CCCNc1ncnc2ccccc12,i,43.6,-14.2,3.9,1.2,-2.7,-0.7,57.2*,
Cc1nonc1OCC(C)(COc1nonc1C)NC(=O)c1ccc(Cl)cc1,i,4.2,-10.9,17.1,-9.7,0.5,-0.4,-14.8,
O=C(O)C1CCN(c2ccc(S(=O)(=O)N3CCOCC3)cc2[N+](=O)[O-])CC1,i,-4.9,nt,19.4,-1.4,2.3,-1.4,4.2,
COc1ccc(N2CCN(S(=O)(=O)c3ccc(-c4cc(C)no4)s3)CC2)cc1,i,-2.1,-18.5,0.7,-9.6,1.8,1.1,10.8,
O=c1[nH]cnc2c1ncn2[C@@H]1O[C@H](CO)[C@@H](O)[C@H]1O,i,-7.3,-15.0,1.9,nt,3.9,9.8,18.8,
COC(=O)c1cnn2c(C(F)(F)F)cc(-c3ccccc3)nc12,nt,-4.7,-27.6,nt,-4.3,-8.6,-6.7,-3.6,
CC1CCN(C(=O)CN(c2ccc3c(c2)OCCO3)S(=O)(=O)c2ccccc2)CC1,nt,-2.2,-2.5,4.7,-11.2,-0.5,-0.6,8.7,
O=C(O)c1ccccc1C(=O)N1N=C(c2ccccc2)CC1c1ccccc1O (stereo not drawn),i,-1.8,-3.0,-19.7,-4.0,-3.4,6.5,0.2,
COc1ccccc1NS(=O)(=O)c1ccc(C(=O)N2CCCCCC2)cc1,nt,nt,nt,?,-25.4,2.2,-3.5,nt,
COc1ccc(OCC(=O)N/N=C/C(C)=C/c2ccco2)c(Br)c1,i,-2.2,-13.9,9.7,nt,-4.8,-2.2,9.2,
O=S(=O)(Nc1cc(Cl)ccc1N1CCCCC1)c1cccs1,i,-7.4,-4.9,14.4,-16.6,-0.7,-3.9,3.8,
COc1cc(C(=O)NCC(=O)OC(C)C(=O)Nc2ncc(Cl)cc2Cl)cc(OC)c1OC (stereo not drawn),i,1.1,nt,11.1,10.0,3.3,1.7,8.8,
COc1ccc(C)cc1NC(=O)CSc1nnc(COc2ccc(Cl)cc2)n1Cc1ccco1,i,-5.4,nt,7.9,78.7*,-1.6,-15.7,-5.9,
CCOC(=O)c1c(C)[nH]c(C(=O)N/N=C\c2ccccc2Cl)c1C,i,-9.9,-4.4,14.1,53.1,-1.0,-5.4,-9.1,
Fc1cc(F)cc(NC(=S)N2CCC(c3ccccc3)C2)c1 (stereo not drawn),i,-7.9,-28.1,1.2,0.7,-2.6,-0.6,-0.8,
COc1ccc(NC(=O)C2(C)Cc3c(-c4ccc5c(c4)OCO5)ccnc3O2)cn1 (stereo not drawn),nt,nt,2.0,9.4,nt,9.0,-4.5,nt,
CC(=O)c1ccc(NC(=O)c2cc(Cl)nc3ccccc23)cc1,i,-11.2,nt,4.7,-2.0,2.4,1.5,-2.8,
